From PubChem
Mtb bLac sens: beta-lactam sensitization of Mtb H37Rv; M. tuberculosis H37Rv growth with meropenem, percent inhibition; hits of this screen are not shown here; AID 434955; hit rate 0.27% among 330,000; inhibition, % at 25 µM;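 active means about 74% or more and at least 40 points above the plate without the antibiotic, then above 30% in a dose series; inconclusive means first-round hits that could not be retested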;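 further: growth measured after seven days incubation then overnight dye step; 0% = bacteria only wells and 100% = bacteria with antibiotic; twin plates without the antibiotic show which effects depend on it; some results filed as inactive read as strong as hits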
RecA splice inh: blocks M. tuberculosis RecA intein splicing | cell-free RecA intein splicing, fluorescence | inhibition, %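 (about 9 µM by stock and volumes)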 | hit rate 0.75% among 290,000; in the data active means inhibition above about 30%; inconclusive means no clear call, values can overlap the other calls;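 further: 0% = vehicle wells and 100% = reference inhibitor control wells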
Target sequence (P9WHJ3 whole entry, looked up, canonical isoform): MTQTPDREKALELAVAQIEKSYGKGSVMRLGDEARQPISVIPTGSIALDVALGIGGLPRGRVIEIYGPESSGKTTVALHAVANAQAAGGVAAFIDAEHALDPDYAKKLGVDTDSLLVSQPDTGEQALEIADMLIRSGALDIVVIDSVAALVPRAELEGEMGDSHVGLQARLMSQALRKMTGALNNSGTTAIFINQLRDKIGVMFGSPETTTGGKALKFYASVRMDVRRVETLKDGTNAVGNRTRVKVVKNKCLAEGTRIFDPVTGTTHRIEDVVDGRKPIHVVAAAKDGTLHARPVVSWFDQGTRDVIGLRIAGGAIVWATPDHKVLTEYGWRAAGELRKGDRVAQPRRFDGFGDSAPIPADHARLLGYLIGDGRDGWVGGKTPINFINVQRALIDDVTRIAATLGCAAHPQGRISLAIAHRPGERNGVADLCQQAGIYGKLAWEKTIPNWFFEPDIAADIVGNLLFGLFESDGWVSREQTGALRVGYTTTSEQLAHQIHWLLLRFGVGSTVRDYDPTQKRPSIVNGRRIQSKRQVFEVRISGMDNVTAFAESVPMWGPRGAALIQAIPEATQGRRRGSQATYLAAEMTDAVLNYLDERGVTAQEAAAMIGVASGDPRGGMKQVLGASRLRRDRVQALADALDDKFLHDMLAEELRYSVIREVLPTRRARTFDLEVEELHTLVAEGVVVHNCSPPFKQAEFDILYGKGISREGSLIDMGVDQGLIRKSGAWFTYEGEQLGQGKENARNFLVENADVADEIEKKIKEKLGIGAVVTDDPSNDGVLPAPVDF
Arbovirus anti: blocks arbovirus infection; arbovirus infection cell-based antiviral screen; inhibition, % at 10 µM; hit rate 0.37% among 200,000; AID 1251;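 active means inhibition from about 30%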;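 further: bluetongue infection of BSR cells; cell survival read as ATP light after 72 h; 0% = infected wells without compound and 100% = uninfected wells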
YopH PTP inh: blocks Yersinia enterocolitica YopH tyrosine phosphatase. hit rate 0.16% among 140,000. AID 898. fluorescence Ex485/Em525. inhibition, %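 (about 10 µM by stock and volumes)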;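 active means inhibition of 50% or more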;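 further: controls were vehicle for no effect and minimum signal wells for full effect; inactives centre near -20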
Mtb growth: M. tuberculosis H37Rv growth inhibitors, H37Rv strain (AID 1626); M. tuberculosis H37Rv growth inhibition; higher % means a stronger effect; inhibition, % at 10 µM, or IC50 in µM where a hit was titrated; hit rate 0.95% among 220,000;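 active means confirmed in a dose series; inconclusive means inhibition above 80% but not taken into the dose series; inactive means below 80% or under 30% at every dose of the series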;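 further: bacteria incubated seven days before Alamar blue readout; 0% = bacteria only wells and 100% = bacteria with antibiotic wells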
Arbovirus anti repeat: second read-out of Arbovirus anti, no call of its own (marks repeat the call); inhibition, %; measured here: 10K subset replicate screen; many hits read low in the repeat;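 first of two repeat runs on a subset; 0% = infected and 100% = uninfected wells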
Numbers without * were called inactive; ? = inconclusive; . = not tested or not shown.

SMILES | Mtb bLac sens | RecA splice inh | Arbovirus anti | YopH PTP inh | Mtb growth | others
COc1ccc(OC)c(NC(=O)c2cc3oc4ccccc4c3cc2O)c1 | 4 | -1.4 | . | . | -5%
Cc1ccc(C(=O)CCC2CCCCC2=O)cc1 (stereo not drawn) | 12 | -2.7 | 5 | -22 | -6%
Cc1ccc(NC(=S)NNC(=O)c2cccc([N+](=O)[O-])c2)cc1Cl | -2 | 0.7 | . | . | .
O=C(COc1ccc([N+](=O)[O-])cc1)NNC(=O)Nc1ccccc1F | 73 | -0.7 | . | . | .
COc1ccc(CCC(=O)Nc2ccc(Br)cn2)cc1 | 54 | -1.9 | -1 | -31 | 7%
CC(C)C(=O)NCCc1nc(-c2ccccc2Cl)no1 | -8 | 0.5 | . | . | -6%
O=C(NCC1CC1)C1(C(F)(F)F)CC(CCc2ccccc2)CCCO1 (stereo not drawn) | 6 | 4.5 | . | . | 14%
COCCn1nnnc1CN(CCc1ccccc1)Cc1cc2cc(OC)ccc2[nH]c1=O | -3 | 5.9 | . | 5 | -1%
COc1ccc(/C=C2\C(=O)ON=C2c2cccc([N+](=O)[O-])c2)cc1 | 0 | 3.0 | 5 | . | -1%
O=C(Nc1ccccc1)c1cc2ccccc2[nH]1 | 5 | 0.7 | -5 | -14 | 2%
Cc1nn(Cc2ccc(F)cc2)c(C)c1NC(=O)c1noc2c1CCc1ccccc1-2 | 4 | 2.2 | -6 | -10 | 1%
Cc1cc(=O)[nH]c(N/N=C/c2ccc(C)o2)n1 | 0 | -4.6 | 1 | -27 | -5%
COC(=O)C1(C)Cc2cc(OC(C)=O)c(OC(C)=O)cc2N1 (stereo not drawn) | 1 | 61* | . | . | .
CCc1ccc(Nc2nnc(SCC(=O)NCCN3C(=O)CSC3=O)s2)cc1 | 3 | -4.1 | 3 | -32 | 8%
Cc1ccc(-n2c(N)c(C(=O)N3CCN(C)CC3)sc2=S)cc1 | -21 | 1.0 | 7 | -12 | -3%
Nc1nc(SCc2ccc(Br)cc2)[nH]c(=O)c1-c1ccccc1 | 5 | 3.3 | 2 | . | -5%
Cc1ccccc1-n1ncc2c1CC(C)(C)CC2NC(=O)CSc1ccncc1 (stereo not drawn) | 10 | 4.8 | . | . | .
NC(=S)Nc1cccc2cnccc12 | -5 | 1.8 | 13 | -18 | -13%
COc1ccc(N2CCN(CCNC(=O)c3nnc(Cc4c(F)cccc4Cl)o3)CC2)cc1 | 9 | -4.0 | 0 | -64 | -1%
CCOc1ccc(N=c2oc3cc(O)ccc3cc2C(=O)NCC2CCCO2)cc1 (stereo not drawn) | -4 | -87 | -10 | -12 | 1%
N#C/C(C(=O)N1CCCCC1)=C1/N=C(NC(=O)c2ccc(F)cc2)c2ccccc21 | 0 | 1.4 | . | . | .
C/C(=N/NC(=O)CN1CCN(Cc2ccccc2Cl)CC1)c1ccco1 | 4 | 1.5 | . | . | -6%
O=C(NNS(=O)(=O)c1ccccc1)Nc1ccc(F)cc1 | 2 | -1.6 | . | . | .
COc1cccc(-c2c(C(=O)N/N=C(\C)c3ccc(Cl)s3)nnn2-c2nonc2N)c1 | 0 | 0.8 | . | . | .
CC(C)C(=O)c1cc2c(cc1NC(=O)c1ccccc1)OCCO2 | ? | -3.6 | -2 | -7 | 0%
SMILES | Mtb bLac sens | RecA splice inh | Arbovirus anti | YopH PTP inh | Mtb growth | others
NS(=O)(=O)c1ccc(NC(=O)COC(=O)/C=C/c2ccc([N+](=O)[O-])cc2)cc1 | -6 | -0.4 | 1 | . | 3%
CCOc1c(Br)cc(/C=C2\N=C(C)OC2=O)cc1Br | 94 | -3.3 | . | . | .
CNCCCOc1cccc(OC(C)C)c1 | -3 | -0.4 | -6 | 7 | .
COCc1ccc(C(=O)NC2CC(C)(C)Cc3c2cnn3-c2ccc(C)cc2)o1 (stereo not drawn) | -3 | 3.0 | . | . | .
CC(=O)Nc1ccc(NC(=O)c2sc3nc4c(c(-c5ccc(C)cc5)c3c2N)CCC4)cc1 | 2 | -13 | 22 | -27 | 8%
O=C(CCNc1cccc(Cl)c1)c1cccs1 | 100 | 0.5 | -1 | -6 | ?
CN1CCC(O)(c2ccccc2)C(C(=O)c2ccccc2)C1 (stereo not drawn) | 99 | -1.3 | -2 | -24 | 48%
CCOc1ccccc1CNC(=O)CCc1cn(CC)c2ccccc12 | -3 | -0.1 | . | . | .
O=S(=O)(Nc1cccc(F)c1)c1cccc2nsnc12 | 7 | 0.3 | . | . | .
COC(=O)[C@]1(C)N[C@H](c2ccc(-c3ccc(Cl)c(Cl)c3)c(OC)c2)[C@@H]2C(=O)N(C)C(=O)[C@@H]21 | 7 | 5.6 | . | . | .
Cc1ccc(NC(=O)CSC2=C(C#N)C(c3ccco3)C3=C(CCCC3=O)N2)cc1 (stereo not drawn) | 8 | 1.1 | 7 | -44 | .
CCCCCOC(=O)C1=C(C)Nc2nnnn2C1c1ccccc1Cl (stereo not drawn) | 8 | 6.6 | -12 | -32 | -1%
COc1ccc(NC(=O)C(CC(=O)O)Cc2ccc(Br)cc2)cc1 (stereo not drawn) | -3 | -3.5 | . | . | .
COc1ccc(NC(=O)NNC(=O)c2ccc3ccccc3c2)cc1OC | 1 | 1.5 | . | . | .
O=C(O)c1ccc(CNc2ccccc2C(=O)O)cc1 | 1 | -0.7 | 11 | -33 | -12%
Nc1c(-c2ccc(Cl)cc2)cnn1-c1cccc(C(F)(F)F)c1 | 24 | 2.9 | 2 | -31 | 11%
CCC(=O)N1CC(=O)Nc2ccc(Cl)cc2C1c1ccc(F)cc1 (stereo not drawn) | -13 | -1.4 | -11 | -12 | -3%
O=C(Nc1cccc(F)c1)c1cc(-c2ccco2)nc2ccccc12 | -1 | 1.5 | . | . | .
CN(Cc1nc(-c2ccncc2)no1)S(=O)(=O)c1ccc(Cl)cc1 | -16 | -2.7 | 9 | 5 | -1%
CC(C)c1nnc(SCC(=O)N2CCN(C(=O)c3ccco3)CC2)n1N | -2 | -4.4 | 12 | . | -12%
CCCN(CC(=O)Nc1ccccc1C)CC(=O)Nc1ccc(Br)cc1F | 4 | 2.2 | . | . | .
COCCNc1ncnc2c1nc1n2CCCC1 | 10 | -0.6 | . | . | .
CC12CCC(=O)N1C(C(=O)N1CCN(S(=O)(=O)c3ccc(Br)cc3Cl)CC1)CS2 (stereo not drawn) | -5 | 4.2 | . | . | .
CC(C)CN1C(=O)C(=O)N(CC(=O)c2ccc3c(c2)OCO3)C1=O | -12 | 1.2 | . | . | .
CC(C)Cc1nnc(NC(=O)CCC(=O)NC2CCCC2)s1 | -6 | 1.3 | . | . | .
SMILES | Mtb bLac sens | RecA splice inh | Arbovirus anti | YopH PTP inh | Mtb growth | others
O=C(OCC(=O)N1CCN(C(=O)c2ccco2)CC1)c1ccccc1 | -2 | -6.5 | 16 | . | 6%
Cc1ccc2cc(C#N)c(NCCNC(=S)NCCCN3CCOCC3)nc2c1 | 2 | -14 | 16 | . | 6%
CC1(C)C[C@H]2C=C(C=O)[C@]3(C=O)C[C@]3(C)[C@H]2C1 | 1 | 1.8 | -36 | -29 | -4%
COc1ccc(NC(=O)CSc2nc3ccccc3c(=O)n2CCCC(=O)NCC2CCCO2)c(OC)c1 (stereo not drawn) | 5 | 0.6 | . | . | .
CCC(=O)c1ccc(OCC(=O)OCC(=O)c2cc(C)n(C)c2C)cc1 | 85 | 2.4 | . | . | .
O=C(NCc1nc2ccccc2[nH]1)c1ccc(S(=O)(=O)N2CCOCC2)cc1 | -12 | -0.6 | 4 | -14 | 4% | Arbovirus anti repeat=8
CCN(CC)CCN(C(=O)C1CCCCC1)c1nc2cc3c(cc2s1)OCO3 | -14 | 0.4 | . | . | .
CCOc1ccc(NC(=O)CN2C(=O)CCSc3ccc(S(=O)(=O)N4CCCC4)cc32)cc1 | 4 | 1.2 | . | . | .
C=CCn1c(COc2cccc(C)c2)nnc1SCn1nnc2ccccc2c1=O | -5 | 0.4 | 2 | -12 | -1%
O=C(CNC(=O)c1ccccc1Br)N/N=C/c1ccc(O)cc1 | 6 | -1.0 | 2 | . | 2%
CC(O)CNCCCOc1cccc(Oc2ccccc2)c1 (stereo not drawn) | -8 | -0.2 | -32 | . | 0%
Cc1ccc(OCC(=O)N(Cc2cccc(F)c2)C2CCS(=O)(=O)C2)cc1 (stereo not drawn) | 1 | 1.0 | . | . | .
O=C(Nc1ccccc1Cl)c1sccc1-c1ccccc1 | 9 | 15 | . | . | .
O=c1[nH]c(=S)n(-c2ccccc2)c(O)c1/C=N/N1CCCCC1c1cccnc1 (stereo not drawn) | 1 | 0.7 | . | . | -4%
Cc1cc(C)n(C(=O)COc2c(C)cccc2C)n1 | 2 | . | 0 | 0 | -3%
Cc1ccccc1Cn1cc(NC(=O)CSc2nc3c(c(C(F)(F)F)n2)CCc2ccccc2-3)cn1 | . | 2.2 | 0 | -21 | 2%
C#CCNC(=O)C1=C[C@H](c2coc3ccccc3c2=O)C[C@H](OCCCCO)O1 | 8 | 0.1 | 7 | . | 7%
CNC(=O)C1CCN(S(=O)(=O)c2c(C)noc2/C=C/c2cccc(OC)c2)CC1 | ? | -0.3 | . | . | .
N#Cc1nc(-c2ccc(OCc3ccc(Cl)cc3)cc2)oc1NCc1cccnc1 | 8 | -1.0 | -10 | -40 | -4%
Cc1nc(-c2ccccn2)nc(SCC(=O)c2ccccc2)c1Cl | 94 | 0.6 | . | . | 3.7µM*
CN(C)CCOC(=O)c1ccc(COc2ccccc2Br)o1 | 5 | 6.8 | . | . | .
Cc1ccc(/C=C/C(=O)O)cc1S(=O)(=O)Nc1ccccc1C(=O)O | 1 | 0.1 | 6 | . | 2%
O=C(O)c1nc(-c2ccccc2)n(-c2cccc(C(F)(F)F)c2)n1 | -4 | 0.6 | -1 | . | -2%
Cc1cc(C)c(S(=O)(=O)n2c([N+](=O)[O-])cnc2C)c(C)c1 | 5 | -1.3 | -3 | -29 | 5%
Cc1ccccc1OCC(=O)NC(Cc1c[nH]c2ccccc12)C(=O)O (stereo not drawn) | -4 | -0.3 | 3 | . | -6%

Of the compounds above, 4 have a cyano group:
SMILES | Mtb bLac sens | RecA splice inh | Arbovirus anti | YopH PTP inh | Mtb growth | others
N#C/C(C(=O)N1CCCCC1)=C1/N=C(NC(=O)c2ccc(F)cc2)c2ccccc21 | 0 | 1.4 | . | . | .
Cc1ccc(NC(=O)CSC2=C(C#N)C(c3ccco3)C3=C(CCCC3=O)N2)cc1 (stereo not drawn) | 8 | 1.1 | 7 | -44 | .
Cc1ccc2cc(C#N)c(NCCNC(=S)NCCCN3CCOCC3)nc2c1 | 2 | -14 | 16 | . | 6%
N#Cc1nc(-c2ccc(OCc3ccc(Cl)cc3)cc2)oc1NCc1cccnc1 | 8 | -1.0 | -10 | -40 | -4%

Further records follow.
SMILES | Mtb bLac sens | RecA splice inh | Arbovirus anti | YopH PTP inh | Mtb growth | others
Cc1c(C=O)c2ccccn2c1C(=O)c1cccc([N+](=O)[O-])c1 | 0 | -8.5 | 7 | . | -9%
CCCC(=O)Nc1nnc(CC(=O)OCC)s1 | -8 | -0.8 | 3 | -19 | 0%
C#CCOCCOCCOCCNc1nc(N2CCN(C(=O)[C@H](CCCCN)n3cc([C@@H](N)C(C)CC)nn3)CC2)nc(N2CCN(C(=O)[C@H](CCCCN)n3cc([C@@H](N)CO)nn3)CC2)n1 (stereo partly drawn) | -5 | 8.5 | 2 | . | .
CCN(CC)C(=S)Oc1c(Cl)cccc1Cl | -1 | 0.7 | . | . | 1%
O=C(Nc1nnc(-c2ccc(F)cc2)s1)C1CCN(S(=O)(=O)c2ccc(Cl)cc2)CC1 | 4 | -4.5 | 1 | -31 | 12%
COC(=O)c1nc(NC(=O)C(C)(C)C)n[nH]1 | 6 | 3.6 | -1 | 13 | -6% | Arbovirus anti repeat=1
CCCCOC(=O)c1ccc(NC(=O)C(=O)CC(=O)c2ccc(OC)cc2)cc1 | 90 | 3.1 | . | . | .
COc1cccc(NC(=O)c2sc3nc(N4CCOCC4)c4c(c3c2N)CCCC4)c1 | 7 | -2.0 | . | . | .
COc1ccc(Cl)cc1NC(=O)C(C)NC(c1ccccc1)c1ccccc1 (stereo not drawn) | 5 | -0.4 | -5 | 5 | 1%
CN(C)S(=O)(=O)c1ccc(Cl)c(NC(=O)COC(=O)c2ccc3c(c2)NC(=O)CS3)c1 | -2 | -0.4 | . | . | -6%
COc1cccc2cc(C(=O)Nc3ccc(S(=O)(=O)NCC4CCCO4)cc3)c(=O)oc12 (stereo not drawn) | -8 | -1.4 | . | . | 9%
COc1cc2c(cc1OC)CN(CC(=O)Nc1ccc(S(=O)(=O)N3CCCC3)cc1)CC2 | -1 | -21 | . | . | .
CC12CCC(C(=O)N/N=C/c3ccc(O)cc3O)(OC1=O)C2(C)C (stereo not drawn) | 9 | -6.1 | . | . | -6%
Cc1ccc(CN2[C@@H](CC3CCCCC3)COCCS2(=O)=O)cc1 | 0 | -2.0 | . | . | .

A portion of the library (hit frequency here may not be typical).
